ClpP mod = qHTS Assay for Activators of ClpP. ATP-dependent Clp protease proteolytic subunit (Bacillus subtilis (strain 168)), P80244. purified B. subtilis ClpP, FRET peptide cleavage, 20 min. Potency, µM (series often up to 57.5 µM), without a hit: top-dose activity change, negative = active. actives 1.9% (n = 340,000). AID 651965, 2013; active = well fitted falling curve with a large enough effect; inconclusive = small, poorly fitted or top-dose-only effect; inactive = no such curve, though single readings can be large or run the other way; further: potency means the concentration at half of the fitted maximal effect; the source files actives as falling curves though it sought activators and does not explain the sign; nearly all actives have a fitted effect of over 65% in size; many hits overshoot -100%
Target sequence (P80244 whole entry, looked up): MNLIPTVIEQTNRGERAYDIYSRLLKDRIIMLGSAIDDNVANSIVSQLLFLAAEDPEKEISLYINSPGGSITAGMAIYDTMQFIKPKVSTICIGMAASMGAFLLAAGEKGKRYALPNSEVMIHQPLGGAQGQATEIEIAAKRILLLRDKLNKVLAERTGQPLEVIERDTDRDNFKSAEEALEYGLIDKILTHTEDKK
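ClpP 10 microg/mL final, pH 8 Tris/KCl buffer with BSA, glycerol, Tween-20; compound pinned in; FRET-FV substrate; RT 20 min; Ex320/Em430; ΔFRET vs ADEP 5.8 microM, DMSO, no enzyme.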
Sfp inh = Sfp phosphopantetheinyl transferase inhibition. Biochemical Sfp PPTase activity, qHTS. Potency, µM, without a hit: max response, negative = inhibition, actives largely listed as inhibitors. AID 1490. Q9F4F7. actives 3.5% (n = 310,000); active means well fitted inhibition curve with a large enough effect; inconclusive means small, poorly fitted or top-dose-only effect, or another doubt; inactive means no such curve, though single readings can be large or run the other way;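 further: the enzyme is Sfp with the accession as filed and its product quenches rhodamine fluorescence; potency means the concentration at half of the fitted maximal effect; 0% = enzyme reaction without inhibitor and -100% = no enzyme wells; top concentration of the series not given in the record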
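Step 1, compound plus 15 nM Sfp-PPTase, 15 min, room temperature. Step 2, add rhodamine-CoA (5 uM) and BHQ-2-YbbR (12.5 uM). Step 3, read 525/598 nm fluorescence at 0 and 30 min.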
Menin MLL FP FL = displaces fluorescein MLL peptide from human menin; 290,000 tested, under 10 active; Fluorescence polarization, fluorescein-MLL peptide displacement from menin; AID 1766; FP activity change, % at 61.4 µM; inconclusive = falling polarisation curve, or a change in total fluorescence; inactive = total fluorescence flat and polarisation flat or rising; no compound was filed as active; the % refers to the polarisation; negative = inhibition;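 further: % of control where 0% means no effect; inhibitors lower the polarisation; unlabelled MLL peptide was the positive control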
PINK1 expr mod = modulators of PINK1 expression; Potency, µM (top dose mostly 76.6 µM), for the others: top-dose activation (PINK1 increase), usual class: activators; AID 624263; PINK1 immunofluorescence, high-content cytometry, 24 h; actives 0.2% (n = 410,000); active = well fitted activation curve with a large enough effect; inconclusive = small, poorly fitted or top-dose-only effect; inactive = flat fitted curve, though single readings scatter; cell line not stated here;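 further: potency means the concentration at half of the fitted maximal effect; % of control where 0% means no effect; nearly all actives have a fitted effect of over 65% in size; a mitochondrial uncoupler was the plate control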
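Decision-based qHTS: stable cells, 24 h exposure to five compound concentrations, CCCP as control. Fixed cells stained for PINK1 plus nuclear, mitochondrial and cell markers, cytometer read.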
gsp antagonist = antagonizes gsp, the McCune-Albright syndrome mutation; Potency, µM (series often up to 76.9 µM), without a hit: at the highest dose activity change, negative = inhibition, most hits filed as inhibitors; actives 0.4% (n = 340,000); gsp-mutant cells, cAMP HTRF, 30 min; control for the full effect not named in the record; active = falling curve of any shape with a large fitted effect; inconclusive = falling curve, mostly with a smaller effect; inactive = flat or rising curve; cell line not stated here;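 further: intracellular cAMP measured with PDE inhibitor Ro 20-1724 present during compound exposure; potency means the concentration at half of the fitted maximal effect; on the % scale 0 is the no-effect control and ±100 the full control effect; nearly all actives have a fitted effect of over 65% in size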
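Measurement of cellular cAMP by homogeneous time-resolved fluorescence following a 30 min compound exposure at 37C. The PDE inhibitor […] was present throughout; the assay buffer was DPBS with 0.05% BSA and 0.005% Tween 20.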
D2 ag = agonists of human D2 dopamine receptor (beta-arrestin); DiscoveRx PathHunter D2 beta-arrestin, luminescence, 90 min; 100% = 57 uM dopamine signal; P14416; actives 0.084% (n = 360,000); activation, % (no concentration beside the values); in the data active = activation above about 40%; inconclusive = about 15% to 40%; inactive = below about 15%; further: compound concentration not given in the record; the text of the record calls up to 30% inactive
Target sequence (P14416 whole entry, looked up): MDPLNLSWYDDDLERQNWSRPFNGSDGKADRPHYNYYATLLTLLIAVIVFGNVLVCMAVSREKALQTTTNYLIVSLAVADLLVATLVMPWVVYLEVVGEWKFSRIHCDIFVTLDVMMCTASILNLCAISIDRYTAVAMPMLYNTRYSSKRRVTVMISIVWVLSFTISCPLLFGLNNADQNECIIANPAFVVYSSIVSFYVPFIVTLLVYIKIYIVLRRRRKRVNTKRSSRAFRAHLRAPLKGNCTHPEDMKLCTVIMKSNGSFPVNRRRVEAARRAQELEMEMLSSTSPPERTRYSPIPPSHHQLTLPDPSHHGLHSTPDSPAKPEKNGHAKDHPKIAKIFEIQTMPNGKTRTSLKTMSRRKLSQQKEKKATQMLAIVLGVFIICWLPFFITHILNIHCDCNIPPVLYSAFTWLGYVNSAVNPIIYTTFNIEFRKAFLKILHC
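DiscoveRx PathHunter D2 beta-arrestin cells (2,100/well) attached overnight, then compound-stimulated 90 min at 37 C in HBSS/10 mM HEPES/0.1% Tween-20 buffer; beta-galactosidase complementation read by luminescence after 1 h at ambient temperature. Dopamine 57 uM final (EC100) as control.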
gsp ag = agonists of gsp mutant (McCune-Albright syndrome). gsp mutant cells, cAMP HTRF, 30 min; control for the full effect not named in the record. Potency, µM (doses to about 76.9 µM), for inactives: top-dose activation (cAMP increase), most hits filed as activators. actives 0.13% (n = 340,000); active = well fitted activation curve with a large enough effect; inconclusive = small, poorly fitted or top-dose-only effect, or another doubt; inactive = no such curve, though single readings can be large or run the other way; cell line not stated here;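 further: phosphodiesterase inhibitor Ro 20-1724 added with compounds to block cAMP breakdown; potency means the concentration at half of the fitted maximal effect; nearly all actives have a fitted effect of over 60% in size; about a fifth of the inactives were tested at one dose only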
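Cells stably selected in G418 were plated at 2000/well, grown 16-24 hr, then given compounds in DMSO with the PDE inhibitor […] (300 uM solution added) for 30 min at 37C; cAMP was read by HTRF.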
Numbers without * were called inactive; ? = inconclusive; . = not tested or not shown; & = joins results of further samples; [ ] = dose if it differs, or a comment. The order is random. About 5.1% of those tested had a hit in this group.

mol	ClpP mod	Sfp inh	Menin MLL FP FL	PINK1 expr mod	gsp antagonist	D2 ag	gsp ag
COc1ccc(-n2c(SCC(=O)N/N=C(\C)c3cccnc3)nc3ccccc3c2=O)cc1	32µM*	2%	2.1	10%	-2%	-3.7	-3%[15.4 µM]
Fc1ccc(Nc2ccnc(-c3ccoc3)n2)cc1	.	?	20	0.1%	.	.	.
O=c1[nH]c(N2CCCCC2)nc2ncn(Cc3ccccc3)c12	0.6%	15%	2.5	-0.4%	10%	-4.3	0%
CCC(C)c1ccc(NC(=O)C2CCCN(c3ncccn3)C2)cc1 (stereo unspecified)	-12%	3%	3.0	.	-20%	-0.9	3%
CCn1c2ccccc2c2cc(NC(=O)CSc3nnc(-c4cccc(Cl)c4)o3)ccc21	-4.7%	7%	0.9	9.1%	7%	-0.2	5%
COc1ccc(CCNC(=O)[C@H](CCSC)NC(=O)N2CCn3c2nc2ccccc23)cc1OC	-0.1%	13%	-0.5	2.6%	8%	-3.0	4%
CCOC(=O)N1CCC(NC(=O)C2CCN(C(=O)c3cc4sccc4n3CC)CC2)CC1	.	28%	3.6	2.3%	-4%	6.1	6%[15.4 µM]
COc1ccc(CSc2n[nH]c(C)n2)cc1[N+](=O)[O-]	0.9%	-3%	0.4	2.1%	3%	0.3	-19%
CCc1ccccc1N(CC(=O)NCCc1ccccc1)C(=O)CCC(=O)Nc1ccccn1	.	8%	-2.5	1.7%	-57%	1.3	9%[15.4 µM]
O=C(NC1CCS(=O)(=O)C1)c1ccc(S(=O)(=O)N2CCCCC2)cc1 (stereo unspecified)	.	8%	-3.6	0.2%	.	1.4	17%[15.4 µM]
O=C(NCCN1CCCC1)c1ccc(Cl)cc1Cl	1.5%	3%	-6.2	1.4%	11%	1.7	4%[15.4 µM]
O=C(Oc1cccc(F)c1)c1ccc2c(=O)n3c(nc2c1)CCC3	-7.1%	.	.	2.7%	-5%	-8.8	?
COC(=O)C1=C(C(=O)OC)[C@@H]2N(C)c3ccccc3[C@@]23C[C@@H](C(=O)OC)N(C(=O)COCc2ccccc2)C3=N1	-3.6%	-23%&3%	-9.5[11.7 µM]	2.5%	2%	-0.1	-161%[inhibitor]
Cc1cc(NC(=O)c2cccc(F)c2)ncc1NC(=O)c1ccco1	-0.3%	25%	1.6	-1.7%	6%	-1.3	-15%
COc1ccc(N(CC(=O)Nc2ccc(C)cc2C)S(=O)(=O)c2c(C)n[nH]c2C)cc1	.	10%	.	-0.6%	-8%	-4.5	21%
O=C(CNCc1ccc(Cl)cc1)NCc1ccco1	0.1%	-16%	-1.0	-0.8%	18%	-5.8	5%
CCn1c(SCC(=O)Nc2ccc(NC(C)=O)cc2)nnc1C1CC1	1.0%	3%	2.7	2.9%	8%	-2.5	-24%
COc1ccccc1NC(=O)C(=O)Nc1ccccn1	-4.0%	-2%	3.5	-3.3%[38.3 µM]	-3%	-2.4	-21%
CN(C)CCNc1ncnc2c1cnn2-c1ccc(Cl)cc1	4.2%	12%	-0.1	-1.4%	0%	-7.7	0%
Nn1c(Cc2cccc3ccccc23)nnc1SCC(=O)N1CC(=O)Nc2ccccc21	1.3%	-20%	7.1	-2.1%	0%	-4.4	-36%[inhibitor]
CN1CCN(C(CNS(=O)(=O)c2ccc([N+](=O)[O-])cc2)c2ccc(F)cc2)CC1 (stereo unspecified)	1.2%	.	.	-0.3%	18%	0.7	-8%
Cc1ccc(S(=O)(=O)N2CCOCC2)cc1C(=O)Nc1ccccc1N1CCCC1	?	.	.	0.0%	7%	-1.9	-42%
COc1ccc(/C=N/NC(=O)c2cccnc2)cc1CN1CCc2ccccc2C1	1.3%	7%	3.4	1.5%	-1%	-2.4	-4%[15.4 µM]
O=C(Nc1ccccc1O)c1ccccc1O	-21%	-24%	-2.6	-4.2%[38.3 µM]	25µM*	1.3	11%
COc1cc(C(=O)Nc2cccc3ncccc23)cc(OC)c1OC	-1.2%	10%	0.5	-0.1%	2%	-2.9	-11%
CC(=O)NC(=S)Nc1ccccc1N1CCN(C(=O)c2ccccc2)CC1	.	0%	3.6	0.3%	?	3.0	7%
Cc1onc(-c2ccccc2Cl)c1C(=O)OCc1cnc(Cl)s1	-2.9%	8%	-0.6	0.4%	-8%	5.8	-5%
COc1ccc([N+](=O)[O-])cc1NC(=O)c1ccc(Br)s1	-0.4%	-3%	46[activator]	7.5%	0%	0.5	18%[15.4 µM]
Cc1cccn2cc(-c3ccc4c(c3)NC(=O)CO4)nc12	.	18%	0.3	-2.6%	-3%	2.4	-42%[15.4 µM]
Cc1ccc(NCc2nnc(SCC(=O)Nc3ccccc3)n2CC2CCCO2)c(C)c1 (stereo unspecified)	0.2%	-12%	1.0	2.4%	-4%	-3.8	2%
Cc1ccc(C2Nc3cccc4cccc(c34)N2)cc1	.	-26%	-5.8	0.6%	3%	?	-43%[inhibitor]
CN(C)CCNC(=O)c1cccc(S(=O)(=O)Nc2ccccc2F)c1	1.7%	18%	-0.4	3.0%	1%	-4.1	?
O=C(OCC(=O)N(CCc1ccccc1)Cc1ccccc1)c1ccccc1O	-6.9%	.	.	-0.5%	-23%	-7.1	-20%
CCC(=O)Nc1nnc(SCc2ccc(F)cc2)s1	3.8%	11%	-0.1	8.5%	4%	-2.0	-67%
O=C(NCc1ccco1)c1nc2c(nnn2Cc2cccc(Cl)c2)c(=O)[nH]1	-1.1%	-15%	3.2	-0.5%[38.3 µM]	-9%	0.1	-40%[inhibitor]
CCCc1[nH]n(-c2ccc([N+](=O)[O-])cc2)c(=O)c1C=NCCc1ccc(OC)c(OC)c1	1.0%	?	-0.7	13%	1%	-1.2	-90%[inhibitor]
O=C1CC(c2ccc3c(c2)OCO3)C2=C(CCCC2=O)N1 (stereo unspecified)	-3.8%	12%	0.3	-1.1%	5%	-1.7	?
CCOC(=O)c1c(C)[nH]c(C)c1C(=O)CSc1nnc(-c2ccc(OC(F)F)cc2)o1	-2.4%	-4%	-1.2	4.0%	-6%	2.9	8%
O=C(Cc1n[nH]c(=O)c2ccccc12)NCc1ccccc1	.	15%	-0.3	-0.4%	7%	-3.2	14%[15.4 µM]
O=C(c1cccc([N+](=O)[O-])c1)N1CCN(C/C=C/c2ccccc2)CC1	.	2%	3.8	-1.0%	-6%	-1.3	16%[15.4 µM]
Cc1cc(S(=O)(=O)NCCCn2ccnc2)c(C)cc1Cl	.	3%	0.3	-0.9%	3%	-1.9	-18%
CCN(c1cccc2ccccc12)S(=O)(=O)c1cccs1	-9.8%	.	.	28%	-12%	3.4	-53%[inhibitor]
CCCOC(=O)c1c(NC(=O)/C=C/c2cnn(C)c2C)sc(C(=O)OCC)c1C	4.4%	2%	-7.4	11%[38.3 µM]	-3%	-1.3	-24%
C/C(=N\NC(=O)C1(C)CC1(Br)Br)c1cccc(NC(=O)C(C)(C)C)c1 (stereo unspecified)	-1.2%	2%	-1.8	7.7%	12%	-1.7	11%
CCOc1ccccc1CN1CCNC(=O)C1CC(=O)N(C)CCc1cnn(C)c1 (stereo unspecified)	-0.1%	19%	.	-1.0%	10%	-1.3	6%
S=C(N/N=C/c1cccc2ccccc12)Nc1cccc(Cl)c1	.	18%	-2.0	7.1%	-13%	-3.2	-11%
CC1(C)Cc2c(sc(NC(=O)C(=O)N3CCCCC3)c2C(N)=O)CO1	1.2%	0%	.	0.6%	4%	-0.5	-11%
CCOc1ccc(S(=O)(=O)Nc2cccc(C(=O)N3CCN(c4ccc(OC)cc4)CC3)c2)cc1	-0.2%	-3%	-0.9	-2.6%	-1%	-2.5	6%
O=C(O)c1nn(CCOc2cccc(Cl)c2)c(=O)c2ccccc12	.	-14%	3.5	-0.1%	1%	-2.9	?
Cc1ccc(C(=O)NCC(=O)OCn2nnc3ccccc3c2=O)cc1	-0.3%	.	.	-0.8%	-3%	-4.2	-51%[inhibitor]
CCN(C[C@H]1N[C@@](Cc2ccccc2)(C(=O)OC)[C@H]2C(=O)N(C)C(=O)[C@@H]12)C(=O)NC(C)C	0.9%	.	.	-0.6%	12%	1.3	.
Cc1ccccc1N/N=C/c1sc(=O)n(Cc2cccc(C(=O)O)c2)c1Cl	.	?	22	2.5%	?	15	?
O=C(NC1CCCCC1)C(c1cccs1)N(C(=O)c1ccco1)c1ccc2c(c1)OCCO2 (stereo unspecified)	-0.6%	-8%	-1.8	0.4%	-21%	-0.7	9%
COc1ccc(S(=O)(=O)NCC(=O)N(CC(=O)NCC2CCCO2)c2ccccc2C)cc1 (stereo unspecified)	-2.8%	-2%	1.1	-0.4%	-2%[15.4 µM]	-0.6	2%
CCCc1cc(N2CCN(C(=O)c3ccco3)CC2)n2c(nc3ccccc32)c1C#N	35µM*	56µM*	2.7	0.9%	4%	-1.4	1%
CCc1c(C)[nH]c2c(C)cccc2c1=O	-8.5%	4%	0.3	0.0%	1%	0.5	-21%
O=C(O)CCn1c2ccccc2c2nc3ccccc3nc21	.	17%	-6.6	-0.3%	-19%	4.5	?
N#Cc1ccccc1S(=O)(=O)N1CCN(c2ccc(S(=O)(=O)N3CCOCC3)cn2)CC1	-15%	-22%	1.6	3.7%	8%	1.4	1%
O=C(O)CNC(=O)/C(=C\c1ccc2c(c1)OCO2)NC(=O)c1ccc(Br)cc1	.	1%	3.5	0.7%	5%	0.2	-40%[inhibitor]
O=C(/C=C/c1ccc(Cl)cc1Cl)NCCSCc1ccccc1	-5.6%	8%	-1.1	?	8%	3.7	1%
CC(=O)Nc1ccc(OCC(O)Cn2c3ccccc3c3ccccc32)cc1 (stereo unspecified)	1.8%	0%	0.3	0.0%	?	0.2	-4%
O=C(Cc1ccc(NC(=O)C2CCCN(C(=O)CCc3ccccc3)C2)cc1)Nc1cccc(C(=O)N2CCCCC2)c1 (stereo unspecified)	1.8%	.	.	0.9%	-20%	0.1	.
Cc1cccc2nc(C(=O)Nc3cccc(C(=O)NC4CC4)c3)cn12	-4.5%	.	.	0.7%	3%	2.6	?

High-throughput results as filed in PubChem BioAssay.
